VDR inh – inhibitors of human vitamin D receptor; P11473; VDR-SRC2-3 peptide fluorescence polarization, 2 h; Potency, µM, for inactives: max response, negative = inhibition, most hits filed as inhibitors; hit rate 0.93% among 400,000; active means well fitted inhibition curve with a large enough effect; inconclusive means small, poorly fitted or top-dose-only effect, or another doubt; inactive means no such curve, though single readings can be large or run the other way; further: series mostly up to about 120 µM
Target sequence (P11473 whole entry, looked up): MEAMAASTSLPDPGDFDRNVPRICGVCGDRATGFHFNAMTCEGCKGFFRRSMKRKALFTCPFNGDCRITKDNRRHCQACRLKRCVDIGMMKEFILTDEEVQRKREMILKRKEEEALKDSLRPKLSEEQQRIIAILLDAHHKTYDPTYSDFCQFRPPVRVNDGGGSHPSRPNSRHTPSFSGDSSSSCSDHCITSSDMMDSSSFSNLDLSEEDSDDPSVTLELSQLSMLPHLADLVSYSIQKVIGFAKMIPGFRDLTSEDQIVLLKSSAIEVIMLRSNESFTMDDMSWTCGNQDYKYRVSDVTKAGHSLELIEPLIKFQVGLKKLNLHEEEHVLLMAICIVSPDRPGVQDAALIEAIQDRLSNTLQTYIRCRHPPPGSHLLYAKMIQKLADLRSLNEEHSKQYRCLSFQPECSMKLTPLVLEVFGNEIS
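Fluorescence polarization assay of small-molecule disruption of VDR binding to coregulator peptide SRC2-3. Compounds and controls pin-transferred, then read after 2 h incubation at ambient room temperature.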
* = called active by the depositor; ? = inconclusive. On the % scale 0 is the no-effect control and ±100 the full control effect; potency means the concentration at half of the fitted maximal effect. These rows are one share of the data; the hit share may differ from the screen's.

| SMILES | VDR inh |
| --- | --- |
| CCOC(=O)c1ccc(N2C(=O)c3[nH]nc(-c4ccc(C)cc4)c3C2c2cccc(F)c2)cc1 (configuration not stated) | -20% |
| CCOCCCNC(=O)c1cc2c(=O)n(CC)c3ccccc3c2s1 | 8% |
| CC[C@H](C)C1NC(=O)[C@H](CC(=O)O)NC(=O)c2cc([N+](=O)[O-])cc(I)c2NCCC(C(N)=O)NC1=O (some centres not stated) | -24% |
| CCc1c(C)nc(SCC(=O)NNC(=O)c2ccco2)[nH]c1=O | -8% |
| CCc1sc(C(=O)NNC(=O)CNC(=O)c2ccccc2F)cc1C | 3% |
| CCOc1ccc(-c2oc3cc(Cl)ccc3c(=O)c2O)cc1OC | 0% |
| Cc1ccc2nc(-c3ccc(NC(=O)C(C)Sc4nncs4)cc3)sc2c1 (configuration not stated) | -14% |
| COc1ccc(C(C)NC(=O)c2ccc(Br)cc2)cc1OC (configuration not stated) | -18% |
| Cc1ccc(Cn2nnc3c(=O)n(CC(=O)N4CCCCC4)cnc32)cc1 | -9% |
| CC1=NN(c2ccccc2)C(=O)/C1=C/c1cn(C)c2ccccc12 | 5% |
| CN(CC(=O)Nc1cccc(F)c1)C(=O)/C=C/c1ccc(Br)s1 | -7% |
| CC1CCCCN1C(C(=O)O)c1ccccc1 (configuration not stated) | -7% |
| CCN(CC1CCCO1)C(=O)CCc1nnc(CCc2ccc(OC)cc2)o1 (configuration not stated) | 6% |
| COc1cccc(/C=N/NC(=O)Cn2cnc3c2c(=O)n(C)c(=O)n3C)c1OC | -16% |
| CC(C)(C)NC(=S)NCC1CC1 | -10% |
| Cc1ccc(-n2c(=O)[nH]c3c(C(N)=O)nc(CC(C)C)nc32)cc1 | -7% |
| Cc1oc(C(=O)O)cc1CSc1nnc(-c2ccccc2)n1C | -9% |
| COc1ccccc1NS(=O)(=O)c1cccc(C(=O)N/N=C(\C)c2ccncc2)c1 | -19% |
| CN1C(=S)SC(N(O)C(=O)Nc2ccccc2)C1(C)C (configuration not stated) | -11% |
| Cc1nc(SCc2nc3c([N+](=O)[O-])cccc3[nH]2)c2oc3ccccc3c2n1 | 2% |
| CC(=O)Nc1cccc(C(=O)NNC(=O)c2ccccc2-n2cccc2)c1 | -1% |
| COc1ccc(NC(=O)CCn2c(-c3ccc(F)cc3)cc(C(C)=O)c2C)c(OC)c1 | 4% |
| C[C@H]1CN([C@@H](C)CO)C(=O)c2cc(NC(=O)CCN3CCOCC3)ccc2O[C@H]1CN(C)C(=O)Nc1ccc(F)cc1 | 15% |
| COc1cc(Nc2ncc3c(n2)CCN(Cc2cc(Br)cs2)C3)cc(OC)c1 | 11% |
| CSCCCNC(=S)Nc1cccc(S(=O)(=O)NC2=NCCC2)c1 | -19% |
| CC(C)C[C@H]1CN=C(Nc2ccccc2)N1CCC1CCCCC1 | 6% |
| CCOC(=O)C1CCCN(S(=O)(=O)c2ccc(S(N)(=O)=O)cc2)C1 (configuration not stated) | -10% |
| Cc1cc(-c2ccccc2)nc(SCC(=O)N2CCCC2)n1 | -2% |
| CC(c1ccccc1)N1CCn2c(nc3cc(NC(=O)c4cccs4)ccc32)C1 (configuration not stated) | -5% |
| CN1CCN(CC(=O)N(Cc2c(C#N)c3ccccc3n2C)c2ccccc2)CC1 | -4% |
| Cc1ccc(CC2C(=O)N(c3nc(C)cc(C)n3)C(=O)C2C)cc1 (configuration not stated) | -9% |
| O=C(O)c1c2c(nc3ccccc13)/C(=C/c1ccc(O)cc1)CCC2 | -2% |
| CC(=O)Nc1ccc(NC(=O)c2ccc(Cl)c(S(=O)(=O)N3CCc4ccccc43)c2)cc1 | 0% |
| COc1cc(NC(=O)Nc2cc(C)on2)cc(OC)c1OC | -6% |
| COc1ccc(C(=O)Nc2ccc3nc(SCC(=O)N4CCc5ccccc54)sc3c2)cc1 | 10% |
| COc1ccc(C(=O)C2CCCN(C(=O)/C=C/c3ccccn3)C2)c(C)c1 (configuration not stated) | -18% |
| CC(NC(=O)COC(=O)c1ccc(Cl)cc1O)c1ccc(F)cc1 (configuration not stated) | -13% |
| O=c1c(-c2ccccc2)nc2cnc(Oc3ccccc3)nc2n1C[C@H]1CCCO1 | 10% |
| CCCCCOC(=O)Cc1c(O)c2ccccc2[nH]c1=O | -15% |
| O=C(N/N=C/c1cn(-c2ccccc2)nc1-c1ccccc1)c1ccco1 | 19% |
| COc1cc(C(=O)N2CCC(c3nc4ccccc4s3)CC2)cc(OC)c1OC | 6% |
| O=C(COC(=O)Cc1ccc(F)cc1)NC1CCS(=O)(=O)C1 (configuration not stated) | -3% |
| Cc1ccccc1OCC(=O)Nc1ccc(OCc2cc(=O)n3ccsc3n2)cc1 | 5% |
| CCn1c(=O)cc(OCC(=O)Nc2cccc(C)n2)c2ccccc21 | 21% |
| COC(=O)c1cc(C)sc1NC(=O)C1C2C=CC(CC2)C1C(=O)O (configuration not stated) | -26% |
| O=C(c1ccccc1)c1cnc(Nc2ccccc2Cl)s1 | -17% |
| c1ccc(COc2cccc(CN3CCc4ccccc4C3)c2)cc1 | 13% |
| CC(C)=C[C@@H]1C[C@H](C)[C@H]2CC[C@H](C)c3c(O[C@@H]4O[C@@H](C)[C@@H](O)[C@@H](O)[C@@H]4O)c(O)c(C)c1c32 | -10% |
| COc1ccc(-n2c(=O)c3ccccc3n(CC(=O)OCc3ccccc3)c2=O)cc1OC | 18% |
| Cc1nc2cc(NC(=O)N3c4ccccc4CC3C)ccc2n1C (configuration not stated) | -17% |

Additional results.
| SMILES | VDR inh |
| --- | --- |
| CN1CCN(c2ccc(NC(=O)c3sc4ccccc4c3Cl)cc2)CC1 | 12% |
| C/C(=N\NC(=O)c1cccnc1)c1cc2ccccc2o1 | -26% |
| Cc1cc(NC(=O)Cn2cnc3sc(C)c(-c4ccccc4)c3c2=O)no1 | 1% |
| CC(=O)OCC(=O)[C@@]1(O)[C@H](C)C[C@@H]2[C@H]3CCC4=CC(=O)C=C[C@]4(C)[C@]3(F)[C@@H](O)C[C@@]21C | 3% |
| COc1ccc(-c2cc(C(=O)N/N=C/c3ccc4c(c3)OCO4)c3ccccc3n2)c(OC)c1 | -10% |
| COc1cccc(CNC(=O)C(C)n2ccc3cc(S(=O)(=O)N4CCCC4)ccc32)c1 (configuration not stated) | 2% |
| Cc1ccc2nc(/C(C#N)=C/c3ccccc3F)[nH]c2c1 | ? |
| CC(C)OC(=O)c1cccc(NC(=O)Cn2nnc3sc4c(c3c2=O)CCCC4)c1 | -9% |
| COc1ccc(/C=C/C(=O)O)cc1COc1ccccc1C | -10% |
| Cc1ccc(NC(=O)CSc2sc3c(O)cc(=O)[nH]c3c2C#N)c(F)c1 | 19% |
| CCOC(=O)N1CCc2c(sc(NCc3cccs3)c2C(=O)Nc2cc(Cl)ccc2OC)C1 | -8% |
| O=C(CSc1nccc(=O)[nH]1)N1N=C2/C(=C/c3ccco3)CCCC2C1c1ccco1 (configuration not stated) | -10% |
| COCCNC(=O)CN1C(=O)NC(c2ccccc2)(c2ccccc2)C1=O | -22% |
| CC(=O)NC(CC(=O)OCc1ccc([N+](=O)[O-])cc1)c1ccccc1 (configuration not stated) | -6% |
| N#Cc1nc(-c2ccc(OCc3ccc(Cl)cc3)cc2)oc1N1CCOCC1 | -18% |
| O=c1cc(-c2ccccc2Cl)oc2c(NS(=O)(=O)c3ccccc3C(F)(F)F)ccc(O)c12 | -9% |
| Cc1nc2ccc(S(=O)(=O)NCC(=O)Nc3ccc(F)cc3F)cc2s1 | 1% |
| CCCNC(=O)c1ccc2nc(-c3ccccc3)c(-c3ccccc3)nc2c1 | -12% |
| CSc1cccc(NC(=O)C2CCCN2S(=O)(=O)c2ccc(Br)s2)c1 (configuration not stated) | 10% |
| COc1ccc(-c2nc[nH]c2[N+](=O)[O-])cc1 | -4% |

Carrying on.
SMILES	VDR inh
CCOC(=O)C1=C(C)N(CCCC(=O)NCc2ccc3c(c2)OCO3)C(=O)NC1c1ccc(Br)cc1 (configuration not stated)	-11%
O=C(CNC(=O)C1CCCCC1)NC1CCCCC1	-14%
N#Cc1c(NC(=O)C(=O)NCCCN2CCOCC2)sc2c1CCC2	-8%
COC(=O)c1sc2ccccc2c1S(=O)(=O)N1CCN(c2ccc(C(C)=O)cc2)CC1	3%
CN(C)C(=O)CCc1ccc2c3c([nH]c2c1)[C@]1(C)[C@@H](C(=O)N2CCCCC2)C[C@H](CC(=O)NCCN2CCOCC2)C(=O)N1CC3	8%
Cc1ccc(OC(=O)CSc2nnc(-c3cccs3)o2)c(C)c1	-5%
COc1ccccc1NC(=O)c1ccc2c(c1)C(=O)N(Cc1ccco1)C2=O	-15%
COc1ccc(-c2nc3cnc(N(C)C)nc3n(CCc3ccccc3)c2=O)cc1	3%
Cc1nn(CC(=O)NCCc2cccs2)c(=O)c2nn(-c3ccccc3)c(C)c12	11%
CCCCSc1nc(O)cc(=O)n1CC	-6%

A second format for some results above:
> COC(=O)c1sc2ccccc2c1S(=O)(=O)N1CCN(c2ccc(C(C)=O)cc2)CC1
  VDR inh: 3%
> CN(C)C(=O)CCc1ccc2c3c([nH]c2c1)[C@]1(C)[C@@H](C(=O)N2CCCCC2)C[C@H](CC(=O)NCCN2CCOCC2)C(=O)N1CC3
  VDR inh: 8%
> Cc1ccc(OC(=O)CSc2nnc(-c3cccs3)o2)c(C)c1
  VDR inh: -5%

Following part:
SMILES	VDR inh
CC1CN(c2cc(=O)n(-c3cccc(Br)c3)c(=O)[nH]2)CC(C)O1 (configuration not stated)	?
COc1ccc(Cl)cc1NC(=O)C(C)N(C)Cc1ccc(C(F)(F)F)cc1 (configuration not stated)	-15%
CCN(CC)C(=O)C1=C(C)Nc2ncnn2C1c1cccnc1 (configuration not stated)	12%
COc1cc(NS(=O)(=O)c2ccc(N/C=C(\C=O)c3nc4ccccc4o3)cc2)nc(OC)n1	-1%
O=C1C(Cl)=C(NC(=O)c2ccccc2)C(=O)C(Cl)=C1NC(=O)c1ccccc1	35µM*
COc1ccccc1-c1nc(SCC(=O)O)n[nH]1	-3%
Cc1ccc(S(=O)(=O)N2CC=C(C(=O)NCCC(C)C)CC2)cc1	-6%
COc1ccc2c(c1)C(C)CC(C)(C)N2C(=O)NC1CCCCC1 (configuration not stated)	-10%
COCCOC(=O)c1cc(C(=O)c2cc(F)ccc2O)coc1=N	-13%
O=c1[nH]cnc2cc(Cl)ccc12	-15%

Entries above containing a CF3 group, in the order listed:
SMILES	VDR inh
O=c1cc(-c2ccccc2Cl)oc2c(NS(=O)(=O)c3ccccc3C(F)(F)F)ccc(O)c12	-9%
COc1ccc(Cl)cc1NC(=O)C(C)N(C)Cc1ccc(C(F)(F)F)cc1 (configuration not stated)	-15%

The listing continues:
SMILES	VDR inh
Cc1ccccc1CN1C(=O)c2ccccc2Sc2ccc(C(=O)N3CCCC3)cc21	6%
COc1ccc2cc(C(=O)NCCO)sc(=O)c2c1OC	-5%
COc1ccccc1OCCOC(=O)Nc1ccccc1	-5%
COc1ccc(N(CC(=O)NCc2ccc(F)cc2)C(=O)c2snc(C(N)=O)c2N)cc1OC	-12%
O=C(O)CN1C(=O)/C(=C\c2cccc(OCc3ccccc3)c2)SC1=S	56µM*
O=[N+]([O-])c1ccc(SCCO)nc1SCCO	13%
NS(=O)(=O)c1ccc(NCc2cc(Cl)ccc2OCc2ccc(F)cc2)cc1	-9%
Cc1cc(/C=C2/C(=N)N3C(=NC2=O)SN=C3S(C)(=O)=O)c(C)n1-c1ccccc1F	?
C=CCOc1ccc(C2C(C#N)=C(N)N(Nc3ccccc3)C3=C2C(=O)CC(C)(C)C3)cc1OC (configuration not stated)	4%
COc1ccc(CCn2c(=S)[nH]c3ccc(N4CCOCC4)cc3c2=O)cc1OC	-17%
Cc1cnc(NC(=O)C(C)N2C(=O)C3CC=CCC3C2=O)s1 (configuration not stated)	-8%
N#Cc1ccccc1NC(=O)COC(=O)/C=C/c1ccc(S(=O)(=O)N2CCOCC2)cc1	19%
Cn1cc(C(=O)c2ccc(Cl)cc2)cc1-c1nc2ccccc2n1C	2%
CCNc1nc(CSc2ccccc2)nc2sc(C)c(C)c12	-4%
CN(C(=O)COC(=O)c1nn(C)c(=O)c2ccccc12)c1c(N)n(Cc2ccccc2)c(=O)[nH]c1=O	-2%
CCN(CC(=O)Nc1ccc2c(c1)OCCO2)CC(=O)Nc1ccc(C)c(S(=O)(=O)N(C)C)c1	-4%
Cc1nnc(SCc2cc(=O)[nH]c(/N=C(\N)Nc3ccccc3Sc3ccccc3)n2)s1	-6%
Cc1ccc(C)c(N2CCN(C(=O)CCS(=O)(=O)c3ccc4c(c3)NC(=O)C(C)S4)CC2)c1 (configuration not stated)	-9%
CC(C)c1ccc(-c2noc(SCC(=O)N3CCN(c4ccccc4F)CC3)n2)cc1	5%
COc1cccc2[nH]c3c(Cl)ncnc3c12	?
Cn1c(=O)c2c(nc(Cl)n2Cc2ccc(Cl)c(Cl)c2)n(C)c1=O	-5%
O=C(CCC(=O)c1ccc(Br)cc1)Nc1cccc(C(F)(F)F)c1	-10%
Cc1ccc(C)c(N2CCN(C(=O)CCCCCn3c(=O)[nH]c4ccccc4c3=O)CC2)c1	-4%
O=C(Nn1cnnc1)c1cc(-c2cccc(Br)c2)nc2ccccc12	-9%
COCCOC(=O)C1=C(C)NC(C)=C(C(=O)OC(C)C)[C@H]1c1cccc([N+](=O)[O-])c1	-21%
CC1CCN(S(=O)(=O)c2ccc(NC(=O)C3CCN(C(=O)c4ccco4)CC3)cc2)CC1	-11%
Cc1ccc(N2C(=O)CC(N3CCN(c4ccccn4)CC3)C2=O)cc1 (configuration not stated)	8%
N#Cc1nc(Nc2cc(F)cc(F)c2)c2ncn(CC(F)F)c2n1	-22%
CC(C)N(Cc1ccccc1)C(=O)CN1C(=O)NC(Cc2ccccc2)(c2ccccc2)C1=O (configuration not stated)	-5%
CNC(=O)COc1coc(CN2CCN(C(=O)c3ccco3)CC2)cc1=O	4%
CCCCN(C(=O)C1CCC1)c1c(N)n(CCC)c(=O)[nH]c1=O	-12%

Entries above that bear a hit mark in VDR inh.
SMILES	VDR inh
O=C1C(Cl)=C(NC(=O)c2ccccc2)C(=O)C(Cl)=C1NC(=O)c1ccccc1	35µM*
O=C(O)CN1C(=O)/C(=C\c2cccc(OCc3ccccc3)c2)SC1=S	56µM*

Screening data: PubChem, National Center for Advancing Translational Sciences (NCATS)
